ClpP mod: qHTS Assay for Activators of ClpP; ATP-dependent Clp protease proteolytic subunit (Bacillus subtilis (strain 168)), P80244; purified B. subtilis ClpP, FRET peptide cleavage, 20 min; Potency, µM (doses to about 57.5 µM), without a hit: at the top dose activity change, negative = active; 1.9% of 340,000 active; AID 651965, 2013; active = well fitted falling curve with a large enough effect; inconclusive = small, poorly fitted or top-dose-only effect; inactive = no such curve, though single readings can be large or run the other way; further: the source files actives as falling curves though it sought activators and does not explain the sign; nearly all actives have a fitted effect of over 65% in size; many hits overshoot -100%
Target sequence (P80244 whole entry, looked up): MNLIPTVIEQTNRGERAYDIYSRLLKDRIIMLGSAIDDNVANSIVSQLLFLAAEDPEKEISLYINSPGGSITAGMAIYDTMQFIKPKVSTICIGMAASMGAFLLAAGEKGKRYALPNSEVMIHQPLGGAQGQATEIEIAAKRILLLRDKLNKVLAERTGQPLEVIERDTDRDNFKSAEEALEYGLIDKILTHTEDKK
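Purified B. subtilis ClpP, 10 microg/mL final in Tris/HCl pH8 with KCl, BSA, glycerol and Tween-20, cleaved an Abz/nitrotyrosine-quenched decapeptide. Fluorescence (ex 320, em 430) was read at 0 and 20 min at room temperature. Delta was normalized to 5.8 microM ADEP and DMSO/no-enzyme controls.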
* hit, by the source's call; ? = inconclusive. Potency means the concentration at half of the fitted maximal effect. Not all compounds are listed; count on the stated rates, not on these rows.

SMILES	ClpP mod
COc1ccccc1N1CCN(S(=O)(=O)CCNC(=O)COc2ccc(C(C)C)cc2)CC1	2.5%
Clc1ccc(CNc2ncnc3onc(-c4ccc(Cl)cc4)c23)cc1	?
Cc1ccc2oc(-c3ccc(C)c(NC(=O)c4ccc(N5CCC(C)CC5)c([N+](=O)[O-])c4)c3)nc2c1	-8.3%
CCS(=O)(=O)c1ccc(O)c(Nc2cc(C)nc(SC)n2)c1	-0.2%
O=C(CCS(=O)(=O)c1cc(Br)cc2c1N(C(=O)C1CC1)CC2)N1CCN(c2cccc(C(F)(F)F)c2)CC1	-0.2%
CCCN(CCC)C(=O)Cn1c(=O)n(-c2ccc(Cl)cc2)c(=O)c2c3c(sc21)CCCCC3	0.9%
Cc1c(C(=O)Nc2ccc(C(C)C)cc2)sc2nc[nH]c(=O)c12	39%
Cn1cc(S(=O)(=O)N2CCCC2)cc1C(=O)Nc1ccc(C(F)(F)F)cc1	-3.8%
CCCS(=O)(=O)N1CC(=O)N(c2cc(C)ccc2C)C(C)(C(=O)NC2CCCCCC2)C1 (stereo unspecified)	-1.0%
O=C(NCC(c1cccnc1)N1CCc2ccccc2C1)c1ccc(F)c(F)c1 (stereo unspecified)	1.7%
O=C(Nc1ccc(N2CCC(N3CCCCC3)CC2)c(C(=O)O)c1)c1ccc(Br)cc1	0.1%
CCOc1ccc(NC(=O)c2cn(C)c(=O)c3cc(OC)c(OC)cc23)cc1	-16%
CC(C)Cn1c(CN2CCN(c3cccc(Cl)c3)CC2)nc2c1c(=O)[nH]c(=O)n2C	-1.2%
COc1cccc(NC(=O)CCN2CCN(CCO)CC2)c1	-1.7%
COc1cccc2sc(N(Cc3cccnc3)C(=O)c3ccc(S(=O)(=O)N(C)C)cc3)nc12	9.0%
CCCCN1C(=O)C(CC(=O)NC2CCCC2)CC(C(=O)N2CCCCCC2)=C1C (stereo unspecified)	5.4%
O=C(Nc1ccc(-c2nc3cc(NC(=O)c4ccc(Cl)cc4)ccc3o2)cc1)c1ccc(Cl)cc1	-0.3%
Cn1ncc2c(N3CCN(c4ccc(F)cc4)CC3)ncnc21	0.2%
CCOC(=O)C1CCCN(C(=O)Cn2ncc3c4ccccc4n(C)c3c2=O)C1 (stereo unspecified)	4.8%
CCN(C(=O)CCc1nc(-c2ccc(C)cc2)no1)c1cccc(Cl)c1	0.0%
O=C(CN1C(=O)CCSc2ccc(S(=O)(=O)N3CCCC3)cc21)Nc1cccc(Cl)c1	0.5%
Cc1ccc2c(CNCCc3ccc(Cl)cc3)c(C(=O)O)n(Cc3ccc(F)cc3)c2c1	-8.2%
CCOC(=O)N1CCc2c(sc(NCc3cccs3)c2C(=O)Nc2ccc(OC)cc2OC)C1	-4.7%
Cc1cccc(OCCSc2nc3ccc(NC(=O)c4cccs4)cc3s2)c1	20µM*
CCOC(=O)N1CCN(c2ncc3c(n2)CC(c2ccccc2O)CC3=O)CC1 (stereo unspecified)	-7.7%

Brought forward from above: 4 compounds; new compounds follow.
SMILES	ClpP mod
Cc1ccc2c(CNCCc3ccc(Cl)cc3)c(C(=O)O)n(Cc3ccc(F)cc3)c2c1	-8.2%
CCOC(=O)N1CCc2c(sc(NCc3cccs3)c2C(=O)Nc2ccc(OC)cc2OC)C1	-4.7%
Cc1cccc(OCCSc2nc3ccc(NC(=O)c4cccs4)cc3s2)c1	20µM*
CCOC(=O)N1CCN(c2ncc3c(n2)CC(c2ccccc2O)CC3=O)CC1 (stereo unspecified)	-7.7%
CCC(C)NC(=O)Cn1c(=O)ccc2cc(S(=O)(=O)N3CCCC3)ccc21 (stereo unspecified)	-12%
Cc1csc2nc(-c3cccc(NC(=O)c4ccccc4F)c3)cn12	-12%
O=C(NCCc1ccccc1)c1ccc2c(c1)CCN2S(=O)(=O)c1ccccc1	-1.5%
Cc1cc(C)c(NC(=O)C2CCN(c3nn4c(=O)cc(C)nc4s3)CC2)c(C)c1	-2.7%
COCCn1c(CCC(=O)Nc2ccc(OC)c(OC)c2)nc2cccnc21	0.4%
CCOC(=O)c1cc(S(=O)(=O)Nc2ccccc2OCC)[nH]n1	0.5%
Cc1ccc(CNc2nc(-c3ccco3)nn2C(=O)c2ccccc2[N+](=O)[O-])cc1	-2.3%
Cc1cc(C)cc(NC(=O)C(=O)NCC(c2ccc3c(c2)OCO3)N2CCOCC2)c1 (stereo unspecified)	0.7%
Cc1ccc(NC(=O)CSc2cn(CC(=O)N3CCOCC3)c3ccccc23)cc1Cl	0.4%
CCOc1ccc(-c2nonc2NC(=O)c2oc3ccc(Br)cc3c2C)cc1	-14%
CCC1Oc2ccc(C)cc2N(CC(=O)NCCc2ccccc2)C1=O (stereo unspecified)	-0.8%
Cc1c(Cl)cccc1NC(=O)C1CCCN(c2ncnc3onc(C)c23)C1 (stereo unspecified)	0.5%
Cc1cc(NC(=O)C2CCN(S(=O)(=O)c3cccc4nsnc34)CC2)ccc1Br	5.5%
CC1CCc2nc3ncn(CC(=O)Nc4cccc(C#N)c4)c(=O)c3cc2C1 (stereo unspecified)	-4.2%
O=C(CSc1nccn1Cc1ccc(F)cc1)NCc1ccc(F)cc1	-0.7%
CCOC(=O)c1ccc(N2C(=O)c3n[nH]c(-c4ccco4)c3C2c2ccc(O)c(OCC)c2)cc1 (stereo unspecified)	-3.9%
COc1cc2c(NC3CCN(C)CC3)nc(N3CCCN(C)CC3)nc2cc1OCCCN1CCCCC1	3.2%
CCOC(=O)c1cccc(NC(=O)c2cc(C)nc3c2c(C)nn3-c2ccc(C)cc2)c1	?
CCOc1ccc(NC(=O)Cn2ccn(-c3ccc(F)c(F)c3)c(=O)c2=O)cc1	0.7%
CC(C)CCN1C(=O)c2ccccc2CC1(C)C(=O)NC1CCCCC1 (stereo unspecified)	2.3%
CCC(=O)Nc1ccccc1-c1nc2ccccc2n(CC(=O)c2ccc(Cl)cc2)c1=O	1.4%
O=C(Nc1ccc2oc(-c3ccc4ccccc4c3)nc2c1)c1ccccc1F	-5.7%
CCCn1c(=O)c2sccc2n2c(CCCC(=O)Nc3ccc(C)c(F)c3)nnc12	-3.0%
Cc1cccc(NC(=O)C2(C)Cc3ccccc3C(=O)O2)c1 (stereo unspecified)	0.7%
O=C1c2[nH]nc(-c3ccccc3O)c2C(c2ccc(Cl)cc2)N1CCc1ccccc1 (stereo unspecified)	-7.9%
COc1ccc(NC(=O)Cn2c(=O)n(-c3ccc(CC(=O)NCC4CCCO4)cc3)c(=O)c3ccccc32)c(OC)c1 (stereo unspecified)	-2.1%
COc1cc(C(=O)N2CCC(c3nc4ccccc4o3)CC2)cc(OC)c1OC	0.5%
CCOc1ccc(CNC(=O)c2ccc(NC(=O)N3CCSc4ncccc43)cc2)cc1OC	?
CC(C)c1ccc(NC(=O)CN2C(=O)COc3ccc(S(=O)(=O)N4CCCCC4)cc32)cc1	0.6%
CCCCC(=O)NC1(C(F)(F)F)C(=O)Nc2c1c(=O)[nH]c(=O)n2-c1ccc(C)c(C)c1 (stereo unspecified)	-2.9%
COc1ccc(NC(=O)c2c(N)c(C(=O)c3ccc(C)cc3)n3ccccc23)cc1OC	4.2%
Cc1c(-c2nc(-c3ccc4c(c3)[nH]c(=O)n4C)no2)cccc1[N+](=O)[O-]	-5.2%
COc1ccc(NC(=O)CCc2nnc3n(C)c(=O)c4sccc4n23)cc1	1.8%
COc1cccc(NC(=O)c2cccc3c(=O)c4c([nH]c23)CCCC4)c1	-1.9%
CCOc1cccc(CC(=O)N2CCc3c([nH]c4ccc(OC)cc34)C2c2ccc(F)cc2)c1OCC (stereo unspecified)	-1.4%
Cc1ccc(C)c(CN2C(=O)c3ccccc3Sc3ccc(C(=O)NCc4cccs4)cc32)c1	-1.7%
CCc1ccccc1NC(=O)c1cc(S(=O)(=O)N2CCC(C)CC2)cn1C	1.7%
O=C(COc1ccc(F)cc1)Nc1ccc2nc(SCc3ccccc3)sc2c1	-5.8%
CCOC(=O)c1cc(-c2ccccc2)n(CCC(=O)NCCc2ccccc2)c1C	-0.8%
COc1ccc(NC(=O)C(=O)NCCc2csc(-c3ccc(Cl)cc3)n2)cc1OC	-1.2%
CCOC(=O)c1ccc2c(c1)N(CC(=O)Nc1ccc(CC)cc1)C(=O)c1ccccc1S2	-0.9%
Cc1ccc(NC(=O)CSc2nncn2C)c(C)c1	0.1%
CCCOc1ccc(C(=O)NCC(c2ccc(OC)cc2)N2CCCCC2)cc1 (stereo unspecified)	-1.8%
Cc1ccc(NC(=O)CN2CCCN(Cc3ccccc3Cl)S2(=O)=O)c(C)c1	-0.4%
Cc1ccnc2ccc(Br)cc12	0.9%
CC(C)S(=O)(=O)c1oc(-c2cccs2)nc1S(=O)(=O)c1ccc(F)cc1	4.3%
CCOc1ccc(N2CC(c3nc4ccccc4n3CCOc3ccc(OC)cc3)CC2=O)cc1 (stereo unspecified)	2.9%
Cc1ccc(Cl)cc1N1C(=O)N(Cc2ccc(C#N)cc2)c2ccccc2S1(=O)=O	-1.1%
Cc1ccc(NC(=O)c2cc(S(=O)(=O)NCCC3=CCCCC3)ccc2F)cc1C	-16%
CCN(CC)S(=O)(=O)c1cc(-c2onc(C)c2C)ccc1OC	-0.2%

Molecules listed so far with a cyano group, in the order listed:
SMILES	ClpP mod
CC1CCc2nc3ncn(CC(=O)Nc4cccc(C#N)c4)c(=O)c3cc2C1 (stereo unspecified)	-4.2%
Cc1ccc(Cl)cc1N1C(=O)N(Cc2ccc(C#N)cc2)c2ccccc2S1(=O)=O	-1.1%

(list continues)
canonical_smiles | ClpP mod
Cc1cc(C)c(NC(=O)CSc2nccn2-c2cccc(Cl)c2)c(C)c1 | -0.5%
Cc1oc2ncnc(N3CCOCC3)c2c1C(=O)NCCc1ccccc1 | 0.7%
Cc1cn2c(=O)cc(COC(=O)c3cccc(NC(=O)C(C)Oc4ccccc4)c3)nc2s1 (stereo unspecified) | -24%
FC(F)(F)C(F)(F)C(F)(F)c1nc2ccccc2[nH]1 | 1.6%
O=C(NC1CCCc2ccccc21)c1ccc2c(c1)sc1nc(-c3ccc(F)cc3)cn12 (stereo unspecified) | ?
CCN(CC)c1ccc(NS(=O)(=O)c2cc(-c3cc(C)no3)ccc2C)c(C)c1 | -4.5%
COc1ccc(C2CC(=O)c3cc(-c4nc(-c5cccc(Cl)c5)cs4)c(=O)[nH]c3C2)cc1OC (stereo unspecified) | ?
Cc1ccc(C(=O)Nc2ccc(OCc3cc(=O)n4c5c(sc4n3)CCCC5)cc2)cc1 | -0.2%
COC(=O)CN1C(=O)CSc2ccc(S(=O)(=O)Nc3cccc(Cl)c3C)cc21 | -1.6%
O=C(CCC1N=C2c3ccccc3N=C(SCc3cccc(F)c3)N2C1=O)NCCc1ccccc1 (stereo unspecified) | -3.2%
CCOC(=O)c1cc(-c2ccccc2)n(CC(=O)Nc2ccc(OC)cc2OC)c1C | 0.8%
Cc1ccc2c(c1)NC(=O)C(CC(=O)Nc1cc(Cl)ccc1C)O2 (stereo unspecified) | -2.4%
O=C(Cn1c(=O)n2nc(-c3ccccc3)nc2c2ccccc21)Nc1ccccc1C(F)(F)F | -0.3%
COc1ccc(OC)c(NC(=O)c2csnn2)c1 | -0.6%
Cc1c(Cl)cccc1NC(=O)Nc1nnc(N(C)C2CCCCC2)s1 | -2.3%
CCc1nnc2c3ccccc3nc(N3CCN(c4cc(Cl)ccc4C)CC3)n12 | -0.3%
COc1ccc(CCC(=O)NCc2ccc3c(c2)CCN3C(=O)c2cccc(C)c2)cc1 | -8.5%
O=C(CC1Oc2ccc(Cl)cc2NC1=O)NCc1ccccc1 (stereo unspecified) | 1.7%
Cc1nc2ccccc2n1CCc1nc2c3ccccc3nc(SCC(=O)Nc3cccc(C(F)(F)F)c3)n2n1 | -8.2%
CC(=O)c1ccc(NC(=O)c2sc(-n3nc(C)c(Cc4ccccc4)c3C)nc2C)cc1 | ?
COc1cc(-c2cc3n(C)c(C)c(CCC(=O)NC4CCC(C)CC4)c(=O)n3n2)cc(OC)c1OC (stereo unspecified) | -8.3%
COc1ccc(-c2cc3ccc(O)c(CN4CCCC4)c3oc2=O)cc1OC | 4.3%
COc1ccc(-n2cc(-c3ccccc3)nc2SCC(=O)Nc2ccccc2C)cc1 | -3.7%
O=C(NCc1ccccc1)N1CCc2c(sc3c2CCCC3)C1c1ccccc1 (stereo unspecified) | -1.1%
CN(C)c1ccc(/C=C/c2ccnc3ccccc23)cc1N | -25%
O=C(Nc1ccc(F)cc1Cl)C1Cc2ccccc2N1C(=O)c1ccccc1 (stereo unspecified) | -0.6%
Cc1ccc(-c2noc(CN(C(=O)c3ccc(C(C)(C)C)cc3)C(C)C)n2)cc1 | -2.7%
Cc1c(Cl)ccc2sc(N3CCN(C(=O)C4CC4)CC3)nc12 | -2.6%
Cc1ccc(NC(=O)CCNS(=O)(=O)c2ccc3c(c2)CCN3C(=O)C2CC2)c(Cl)c1 | -0.8%
Cc1sc(-n2cccc2)c(C(C)NC(=O)Nc2ccccc2Cl)c1C (stereo unspecified) | 2.0%
CC(=O)Nc1ccc(SC[C@H](Cc2ccccc2)N2CC[C@@H](N)CCC2=O)cc1 | -1.7%

Reformatted: entries from further up.
Cc1sc(-n2cccc2)c(C(C)NC(=O)Nc2ccccc2Cl)c1C (stereo unspecified)
  ClpP mod: 2.0%

O=C(Nc1ccc(F)cc1Cl)C1Cc2ccccc2N1C(=O)c1ccccc1 (stereo unspecified)
  ClpP mod: -0.6%

COc1ccc(-n2cc(-c3ccccc3)nc2SCC(=O)Nc2ccccc2C)cc1
  ClpP mod: -3.7%
